# Screening results from PubChem.
# HPGD inh = qHTS Assay for Inhibitors of HPGD (15-Hydroxyprostaglandin Dehydrogenase) | Potency, µM, for inactives: at the top dose activity change, negative = inhibition, usual class: inhibitors | 15-hydroxyprostaglandin dehydrogenase [NAD(+)] (Homo sapiens), P15428 | purified HPGD, NADH fluorescence kinetic, PGE2 substrate | 150,000 compounds, 4.3% hits | AID 894, 2007; active = well fitted inhibition curve with a large enough effect (not every such curve was filed as active); inconclusive = small, poorly fitted or top-dose-only effect, or another doubt; inactive = no such curve, though single readings can be large or run the other way;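 further: top concentration of the series not given in the record; plate controls included wells without enzyme; inactives centre near -10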
# Target sequence (P15428 whole entry, looked up): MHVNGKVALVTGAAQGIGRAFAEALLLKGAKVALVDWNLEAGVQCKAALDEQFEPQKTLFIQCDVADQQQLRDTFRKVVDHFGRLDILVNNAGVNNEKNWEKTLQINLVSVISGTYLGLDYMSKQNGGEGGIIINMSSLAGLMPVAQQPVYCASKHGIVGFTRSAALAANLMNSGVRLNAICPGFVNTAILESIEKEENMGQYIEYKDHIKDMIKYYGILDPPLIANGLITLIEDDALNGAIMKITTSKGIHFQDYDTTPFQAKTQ
#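 20 nM HPGD preincubated 15 min at room temperature with compound in 50 mM Tris-HCl pH 8, 0.01% Tween 20. Started with 1 mM NAD+ and 30 uM prostaglandin E2; NADH fluorescence (360/450 nm) read 5 times over 30-s intervals, last minus first.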
# Starred values were filed as active, the others as inactive; ? = inconclusive. On the % scale 0 is the no-effect control and ±100 the full control effect; potency means the concentration at half of the fitted maximal effect.
SMILES,HPGD inh
CC(=O)Nc1ccc(S(=O)(=O)NC2(C(F)(F)F)NC(=O)N(C3CCCC3)C2=O)cc1 (stereo not drawn),1.8%
CCOC(=O)C1(C(C)(C)CC)CC(CSc2nc3ccccc3[nH]2)OC1=O (stereo not drawn),-11.2%
O=C(c1ccc(COc2c(F)c(F)c(F)c(F)c2F)o1)N1CCOCC1,-5.6%
O=S(=O)(NC1CCCCC1NS(=O)(=O)c1ccc(F)cc1)c1ccc(F)cc1 (stereo not drawn),-7.3%
O=C(O)CCCNC(=O)c1ccccn1,-12.6%
CC[C@@H](NS(=O)(=O)c1ccc(C)cc1)C(=O)Oc1ccc2c3c(c(=O)oc2c1)CCC3,?
N#Cc1ccc(COc2ccc(CCO)cc2-n2nc3ccccc3n2)cc1,?
CCn1c2ccccc2c2cc(N=C3SC(CC(=O)Nc4ccccc4OC)C(=O)N3C)ccc21 (stereo not drawn),-14.8%
Cc1c(NC(=O)C(C)OC(=O)c2c3c(nc4ccccc24)CCC3)c(=O)n(-c2ccccc2)n1C (stereo not drawn),-17.3%
CCOc1cc(CNn2cnnc2)cc(Br)c1OCC(=O)NC1CCCCC1,-21.0%
O=C(NCC1CCN(c2ccc(S(=O)(=O)N3CCOCC3)cc2)CC1)c1ccc(Cl)cc1,-25.7%
Cn1nnc2cc(C(=O)N3CCCCCC3)ccc21,3.16µM*
Cc1onc(-c2ccccc2Cl)c1C(=O)NC(=S)NCCc1ccccc1,-8.2%
COc1cc(OC)cc(C(=O)NNC(=O)NC2CCCCC2)c1,-7.7%
COc1cccc(CNC(=O)C2(C)Oc3ccccc3NC2=O)c1 (stereo not drawn),0.7%
O=C(c1ccccc1)N1CCC(c2nc(-c3ccc(S(=O)(=O)N4CCOCC4)cc3)no2)CC1,-12.5%
O=C(c1cc2nc(-c3cccs3)cc(C(F)(F)F)n2n1)N1CCCc2ccccc21,14.1µM*
Cc1ccc(S(=O)(=O)C2CCCCC2=O)cc1 (stereo not drawn),-13.1%
CSc1nc2ccc(S(=O)(=O)N3CCc4ccccc43)cc2s1,-11.1%
COc1ccc(C2C(C(C)=O)=C(O)C(=O)N2c2cccnc2)c(OC)c1 (stereo not drawn),?
COc1ccc(NC(=O)c2cccc(S(=O)(=O)N(C)c3ccccc3)c2)cn1,-14.5%
O=C(Nc1ccncc1)c1cc2ccccc2o1,-5.1%
CNC(=S)Nc1ccccc1-c1ccccc1,-3.9%
C=CCOC(=O)C1=C(C)OC(N)=C(C#N)C1c1ccccc1F (stereo not drawn),-12.6%

# Shown bar-delimited: 3 of the compounds above
smiles | HPGD inh
CCn1c2ccccc2c2cc(N=C3SC(CC(=O)Nc4ccccc4OC)C(=O)N3C)ccc21 (stereo not drawn) | -14.8%
COc1ccc(C2C(C(C)=O)=C(O)C(=O)N2c2cccnc2)c(OC)c1 (stereo not drawn) | ?
Cn1nnc2cc(C(=O)N3CCCCCC3)ccc21 | 3.16µM*

# Other structures.
SMILES,HPGD inh
COc1ccc(OC)c(NS(=O)(=O)c2ccc(NC(=O)c3ccc(NS(C)(=O)=O)cc3)cc2)c1,-14.4%
CNC(=O)c1cc2c(=O)n3cc(C)ccc3nc2n(C(C)C)c1=N,?
CCOC(=O)c1ccn(-c2nc(-c3ccco3)cc(C(F)(F)F)n2)n1,?
CCOC(=O)CC(=O)CSc1nc(C)nc2c1oc1ccccc12,?
O=C(Nc1ccc2c(c1)OCO2)c1nn(-c2ccccc2)c(=O)c2ccccc12,-6.6%
CCCCNC1CCS(=O)(=O)C1 (stereo not drawn),-7.8%
COc1cccc(-c2cc(C(=O)NCCc3ccccc3)no2)c1,-10.8%
C=CCN(CC=C)C(=S)NC(=O)/C=C/c1ccc(C)cc1,-6.8%
CCC(=O)OC1(C)C(=O)C2=COC(c3ccc(OC)cc3)=CC2=C(Br)C1=O (stereo not drawn),-8.8%
CCN(CC)S(=O)(=O)c1cc(C(=O)Nc2ccncc2)ccc1Cl,-11.2%
COc1cccc(/C=N/NC(=O)c2[nH]nc3c2CCc2ccccc2-3)c1O,35.5µM*
CCOC(=O)CN1C(=O)C(CC)Oc2ccc(Cl)cc21 (stereo not drawn),-9.4%

# Ordered by SMILES length (largest number first): some entries from above
SMILES,HPGD inh
COc1cccc(/C=N/NC(=O)c2[nH]nc3c2CCc2ccccc2-3)c1O,35.5µM*
COc1cccc(-c2cc(C(=O)NCCc3ccccc3)no2)c1,-10.8%
CCOC(=O)CN1C(=O)C(CC)Oc2ccc(Cl)cc21 (stereo not drawn),-9.4%

# The list continues:
SMILES,HPGD inh
O=[N+]([O-])c1ccc(COc2ccc(-c3[nH]ncc3-c3ccc(Cl)cc3)c(O)c2)cc1,-14.9%
Nc1ncnc(Sc2ccc(Cl)cc2)c1[N+](=O)[O-],-4.8%
O=C(NCCCN1CCOCC1)c1cc(C(=O)C2CC2)c[nH]1,-7.2%
O=C(NCc1ccc2[nH]c3c(c2c1)CCCC3)N1CCOCC1,-9.0%
CC(=O)Nc1ccc(S(=O)(=O)N2CCSC2c2ccccc2Cl)cc1 (stereo not drawn),-10.4%
CCOc1ccccc1NC(=O)N1C2CCCC1CC(NC(=O)C1CC1)C2 (stereo not drawn),-10.8%
COc1ccc(NC(=O)c2cc3c(Cl)nc4ccccc4c3s2)c(OC)c1,-16.8%
CNC(=O)C1CCC(=O)N1Cc1ccc(C)cc1 (stereo not drawn),0.7%
COC(C(=O)Nc1ccc(C(C)=O)cc1)c1ccccc1 (stereo not drawn),-9.3%
CCCOC(=O)c1ccc(N2C(=O)c3ccccc3C2=O)cc1,2.1%
C[C@]12C=CC(=O)C=C1CCC1C2=CC[C@]2(C)[C@@H](C(=O)CN3CCN(c4cc(N5CCCC5)nc(N5CCCC5)n4)CC3)CC[C@@H]12 (stereo partly drawn),-18.3%
Cc1cc2ncn(C(=O)N3CCOCC3)c2cc1C,-22.6%

# Records listed so far printed as active in HPGD inh:
SMILES,HPGD inh
Cn1nnc2cc(C(=O)N3CCCCCC3)ccc21,3.16µM*
O=C(c1cc2nc(-c3cccs3)cc(C(F)(F)F)n2n1)N1CCCc2ccccc21,14.1µM*
COc1cccc(/C=N/NC(=O)c2[nH]nc3c2CCc2ccccc2-3)c1O,35.5µM*

# Following part:
SMILES,HPGD inh
O=c1c(-c2ccccc2)coc2c(CN3CCOCC3)c(O)ccc12,?
Cc1cc(-c2nnc(SCC(=O)NC3CCCC3)o2)no1,-28.2%
O=C1COc2ccccc2CN1,-5.2%
CO/N=C(/CS(=O)Cc1ccc(Cl)cc1)c1ccc(Cl)cc1 (stereo not drawn),-1.6%
CC1CCc2nc(NC(=O)CCSc3ccccc3)sc2C1 (stereo not drawn),-4.6%
Cc1cc(C)n2nc3nc(N4CCCC4)nc(-c4ccccc4)c3c2n1,-10.7%
COc1cc(Cn2cnnn2)ccc1O,-10.1%
O=C(NCCCN1CCOCC1)c1cc2ccccc2o1,-1.2%
O=C(Nc1ccccc1)NC1CCN(Cc2nnnn2C2CCCCC2)CC1,-11.1%
Cc1ccc(NC(=O)CN(C)S(=O)(=O)c2cccc3nsnc23)cc1C,-11.4%
CCCCCn1c(=O)[nH]c2cc(C(=O)NCCCN3CCCCC3)ccc2c1=O,-29.7%
Cc1cc(N2C(=O)C(O)=C(C(=O)c3ccco3)C2c2cccnc2)no1 (stereo not drawn),0.5%
O=S(=O)(c1ccccc1)N1CCC2(CC1)CN(c1ccncc1)C2,-27.4%
Cc1ccccc1CSc1nnc(-c2cccnc2)n1N,-4.5%
O=C(Nc1nc2ccc(S(=O)(=O)N3CCCC3)cc2s1)C1CCCO1 (stereo not drawn),-13.4%
COc1ccc(N2C(=O)CC2(/C=C/c2ccccc2OC)C(=O)NC2CCCC2)cc1 (stereo not drawn),-7.2%
Cc1ccc(C2CC(=O)c3cnc(N4CCc5ccccc5C4)nc3C2)cc1 (stereo not drawn),?
CCCCNC(=O)C(=O)N/N=C/c1cccc(Br)c1,-12.5%
CC1CN(c2cc3nccnc3cc2F)CC(C)O1 (stereo not drawn),-7.7%
COc1ccc(CCNC(=O)C(C(=O)c2ccccc2)n2cc(Cl)ccc2=O)cc1OC (stereo not drawn),5.3%
O=C(O)CSc1cnc2ccccc2n1,-21.4%
COc1ccc(-c2nc(CS(=O)CC(=O)NCc3ccco3)c(C)o2)cc1 (stereo not drawn),-18.2%
COC(=O)c1[nH]c2ccc(C)cc2c1NC(=O)CN1CCCc2ccccc21,?
CC(C)N=Cc1c(O)[nH]c2ccccc12,-9.7%
Cc1cc(=O)[nH]c(SCC(=O)Nc2ccc(Br)cc2)c1C#N,-38.6%
COc1ccc(OC)c(S(=O)(=O)N2CCC(C(=O)NCc3ccccc3OC)CC2)c1,?
O=C(CCc1ccccc1)NC(NC(=S)Nc1cccc(Cl)c1)C(Cl)(Cl)Cl (stereo not drawn),-21.9%
COc1cc(NC(=O)CN2CCC(Cc3ccccc3)CC2)c(C)cc1[N+](=O)[O-],1.2%
O=C(NC1CCCCC1)C(c1ccc(O)cc1)N(CC1CCCO1)C(=O)C1COc2ccccc2O1 (stereo not drawn),-2.7%
CCN(CC)S(=O)(=O)c1ccc2oc(C(=O)NCc3ccc(C)cc3)c(C)c2c1,?
COc1ccc(C(=O)Nc2nc(C)cc(C)n2)cc1[N+](=O)[O-],-2.4%
CC1Cc2cc(C3(O)C(=O)c4ccccc4C3=O)ccc2N1 (stereo not drawn),-6.1%
COc1ccc(-n2nc3cc(C)c(NC(=O)C(C)C)cc3n2)cc1,?
COC(=O)c1[nH]c2ccccc2c1NC(=O)CN1CCN(C/C=C/c2ccccc2)CC1,-21.7%
CCN1CCCC1CNC(=O)c1ccc(N2CCCC2=O)cc1 (stereo not drawn),-6.8%
c1ccc(-c2nc(NCc3ccco3)c3oc4ccccc4c3n2)cc1,-22.8%
CC(C)C(NC(=O)c1ccc(C(C)(C)C)cc1)C(=O)NC1=NCCS1 (stereo not drawn),-1.1%
c1ccc(CCNc2nc3ccccc3n3nnnc23)cc1,-21.6%
O=C1NCCCC1C(=O)N1CCN(C(c2ccccc2)c2ccccc2)CC1 (stereo not drawn),-10.4%
Cc1c(-c2ccc(Cl)cc2)oc(=O)c2c(N)n(-c3ccccc3)nc12,?
O=C(Nc1ccc(Cl)cn1)Nc1ccccc1Cl,-7.1%
CCCn1c(CCC(=O)O)ccc1-c1ccc(F)cc1,-14.4%
O=C(O)c1cccnc1NC1CCCC1,-8.5%
CCN1CCN(c2ncc3c(n2)CC(c2cc(OC)c(OC)c(OC)c2)CC3=O)CC1 (stereo not drawn),-19.4%
CCn1nc(C(=O)Nc2ccc3nc(C)sc3c2)c2ccccc2c1=O,?
CCOC(=O)Cn1c(C)c(C#N)c2ccccc21,-6.7%
COC(=O)c1ccccc1NC(=O)c1ccccc1OC,-11.7%
Cc1nc2ccc(Br)cn2c(=O)c1Cl,-9.1%

# Three entries from above, with the structure last:
HPGD inh,mol
-14.4%,CCCn1c(CCC(=O)O)ccc1-c1ccc(F)cc1
-9.1%,Cc1nc2ccc(Br)cn2c(=O)c1Cl
-21.6%,c1ccc(CCNc2nc3ccccc3n3nnnc23)cc1

# Other structures follow:
SMILES,HPGD inh
O=C(c1ccncc1)N1CCC2(CCN(Cc3nccs3)CC2)CC1,-3.2%
O=C(O)[C@@H](O)c1ccc(F)cc1,-4.1%
CCOC(=O)C1=C(O)/C(=C/c2ccc(CNC(=O)C(=O)Nc3ccc(C)cc3)o2)N=C1C,-23.3%
O=C(NCC1(c2ccccc2)CCCC1)c1ccc(Br)cc1,-3.4%
CCOc1ccc(-c2nc(CSCC(=O)N3CCN(C(=O)c4ccco4)CC3)c(C)o2)cc1,-29.4%
Cn1c(=O)c2ncn(CC(=O)Nc3ccc(N4CCOCC4)cc3)c2n(C)c1=O,-11.5%
O=[N+]([O-])c1cc2c(cc1/C=N/n1c(-c3ccccn3)n[nH]c1=S)OCO2,?
C/C(=N\OCC(=O)Nc1ccccc1C(C)(C)C)c1ccc2c(c1)OCCO2,-24.5%
Cn1cnnc1SCC(=O)Nc1ccc2nc(SCc3ccccc3)sc2c1,?
Cc1cc(C(C)(C)C)ccc1OCCCCN1CCCC1,5.2%
N#CCCn1cc(/C=N/O)c(-c2ccccc2)n1,-18.4%
CCN1CCN(CC(O)COCCOc2ccc(Br)cc2)CC1 (stereo not drawn),3.4%
CCCCN(C(=O)Nc1ccc(OCC)cc1)C1CCN(C(C)=O)CC1,2.4%
COc1ccc(CCN2CC(C(=O)NCc3ccco3)CC2=O)cc1OC (stereo not drawn),-9.4%
Cc1cccc(Nc2nc(N)c([N+](=O)[O-])c(N3CCCC(C)C3)n2)c1 (stereo not drawn),-3.6%
Cc1nc(Nc2ccc(S(=O)(=O)N3CCCC3)cc2)c2nnn(Cc3ccccc3)c2n1,?
Cc1cc(NC(=O)c2cccc(COc3ccc(Br)cc3)c2)no1,-21.0%
Cc1ccc(S(=O)(=O)N=S(CCO)CCO)cc1,2.8%
CCC(=O)OCC(=O)Nc1cc(C)c(C)cc1[N+](=O)[O-],-4.3%
Cc1ccc(S(=O)(=O)/C(C#N)=C/c2c(N3CC(C)OC(C)C3)nc3ccccn3c2=O)cc1 (stereo not drawn),14.1µM*
CCOCC(=O)Nc1nnc(C2CCCCC2)s1,-25.3%
COc1ccc(Cl)cc1-n1c(N)c(C(N)=O)sc1=S,28.2µM*
COC(=O)C1=C(NC(=O)c2cccc(OC)c2)CCS1,-13.3%
Brc1ccc(-c2nc(-c3ccccn3)no2)o1,-3.9%
COc1ccc2c(c1OC)C(=O)N1C2SC[C@H]1C(=O)NC1CC(C)(C)NC(C)(C)C1 (stereo partly drawn),-9.0%

# Only part of the results is shown. The share of hits here may be higher or lower than overall.
